Compound activity (PubChem)
HSF1 inh: HSF1 inhibitors in luciferase reporter cells, primary screen, cell-based, NIH3T3, luminescence; 0.77% of 300,000 active; NIH3T3-HGL HSE-luciferase, MG132-induced, luminescence 8 h; active compounds read low; AID 2098, 2009; activity change, negative = inhibition, % at 7.5 µM (by protocol);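 active = more than half of replicate wells show activity change below -50%, luminescence cut by over half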;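 also: luciferase reports HSF-1 transcriptional activity via heat shock element; 0% = median of DMSO wells and -100% = zero luminescence signal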
IEC-6 cytotox: cytotoxicity in IEC-6 intestinal epithelial cells, primary screen, cytotoxicity control for KLF5 inhibitor project, cell-based, luminescence | IEC-6 cytotoxicity, luminescence viability | inhibition, % at 5 µM | 0.78% of 290,000 active | AID 1825, 2009; in the data active = inhibition above about 22%;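 also: 0% = plate median of test compound wells and 100% = cytotoxic reference compound wells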
SKKanGAS inh: S. pyogenes SKKanGAS growth inhibitors in kanamycin, primary screen, streptokinase expression inhibitor project, SKKanGAS strain, BacTiter-Glo luminescence; 1.3% of 300,000 active; AID 1662, 2009; inhibition, % at 7.5 µM; 6 h;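 active = mean replicate score, as percent of positive control median, at least 50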;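 also: strain carries kanamycin resistance gene driven by streptokinase promoter and grows in 40 µg/ml kanamycin; loss of luminescence reflects streptokinase promoter inhibition or plain growth inhibition; 0% = median of DMSO wells and 100% = positive control at its reference dose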
Platelet DG rel: inhibitors of platelet dense granule secretion, primary screen, cell-based, MLPCN, human platelets. human platelet-rich plasma, SFLLRN dense granule ATP release, luminescence. inhibition, %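 (compounds screened at 7.5 µM in platelet-rich plasma)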. 0.22% of 300,000 active;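 active = mean replicate score, as percent of positive control, at or above 50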
aSyn 5UTR inh: MLPCN primary screen, SNCA 5' untranslated region. alpha-synuclein 5'UTR reporter, inhibitor activity. inhibition, % (tested at 7.5 µM). 0.82% of 300,000 active; in the data active = inhibition above about 60%;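 also: H4 neuroglioblastoma cells stably carrying SNCA 5'UTR luciferase fusion; 0% = DMSO wells and 100% = positive control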
AI-2 QS mod: Vibrio harveyi AI-2 quorum sensing modulators, primary screen, JMH597 strain, luminescence/OD600 ratio | Vibrio harveyi JMH597 AI-2 luminescence/OD600 ratio, 9 h; active compounds read low; strain lacks LuxN and CqsS sensors; 0 = neutral-control median | activity change, % at 7.5 µM | 0.4% of 300,000 active; in the data active = activity change below about -75%, passing the limit was not always enough;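 also: luminescence divided by OD600 gain over 9 h not by final OD600 alone; inactives centre near 13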
HSF1 activator: HSF-1 activators, primary screen, NIH3T3-HGL cells, MG132 stress, luminescence, single point; activation, % at 9 µM; 1.7% of 300,000 active; NIH3T3-HGL HSF-1 luciferase reporter, 8 h; 100% = twice DMSO control signal; AID 504408, 2011;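 active = mean replicate activation of at least 50% with a set share of replicates each reaching 50%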;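 also: 0% = median of the neutral control wells and 100% = twice that signal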
KLF5 inh: KLF5 expression inhibitors, primary screen, DLD-1 cells, luminescence | inhibition, % at 5 µM | DLD-1 KLF5 promoter-luciferase reporter | 0.23% of 290,000 active | AID 1700, 2009;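 active = inhibition above a per-plate limit of that plate's mean compound inhibition plus 3 SD, cut at about 60% in these data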;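 also: 0% = DMSO wells and 100% = LY294002 at 200 µM; higher means less KLF5 promoter-driven luciferase light; inactives centre near -14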
HSP90 refold inh: HSP90 inhibitors, primary screen, cell lysate, luminescence; Heat shock protein HSP 90 (rabbit reticulocyte lysate; luciferase refolding); Rabbit reticulocyte lysate, luciferase refolding luminescence, 3 h; inhibition, % at 5.6 µM; 0.91% of 290,000 active; AID 1789, 2009;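 active = inhibition above the screen-wide mean plus 3 SD, computed separately per campaign, cut at about 16% in these data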;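 also: 0% = DMSO wells and 100% = 60 µM geldanamycin wells; inhibitors lower the luminescence because luciferase stays unfolded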
The depositor's hits bear a star; · = not tested or not shown. Only part of the results is shown, so the mix of outcomes need not match the whole.

Each structure is followed by: HSF1 inh | IEC-6 cytotox | SKKanGAS inh | Platelet DG rel | aSyn 5UTR inh | AI-2 QS mod | HSF1 activator | KLF5 inh | HSP90 refold inh
CCC(CC)c1nc2cc(OC)c(OC)cc2c(=O)o1
→ -8.1 | 2.3 | -0.1 | -3.3 | 9.2 | -0.6 | -13.3 | 0.8 | 0.4
Cc1occc1C(=O)OCC(=O)Nc1ccc(F)cc1
→ 2.2 | 1.1 | -9.7 | -5.1 | -62.3 | -66.6 | 22.2 | -21.3 | -4.4
CCOC(=O)NC1(C(F)(F)F)C(=O)NC(C)=C1C#N (stereo unspecified)
→ -5.2 | -5.7 | -0.7 | -0.6 | 4.9 | 6.8 | -0.4 | -0.3 | 1.0
Nc1ccc(S(=O)(=O)c2ccc(N)cc2)cc1
→ 2.5 | 3.2 | -2.5 | 7.6 | -5.4 | 33.1 | 1.9 | -11.4 | -0.3
CCOC(=O)c1c(C)n(C)c2ccc(OC)c(NC(=O)CCN3CCSCC3)c12
→ 3.2 | 1.0 | 6.0 | 0.9 | 29.5 | 8.6 | 5.7 | -23.0 | 1.2
NC(=O)c1cc[n+](CC2=C(C(=O)O)N3C(=O)[C@@H](NC(=O)C(c4ccccc4)S(=O)(=O)[O-])[C@H]3SC2)cc1 (stereo partly specified)
→ -5.1 | 1.2 | -8.1 | -0.2 | 6.2 | 15.2 | -9.0 | -21.7 | 2.5
O=c1[nH]cnc2cc(-c3ccccc3)sc12
→ 17.7 | 1.7 | 16.4 | -5.9 | -94.5 | 19.8 | 23.8 | -73.8 | 3.0
CC(C)OC(=O)c1sc2nc3c(cc2c1N)C(=O)CCC3
→ 19.9 | 4.1 | 13.0 | · | -181.6 | 7.1 | 44.4 | -112.8 | 5.0
OC(CCCN1CCCCC1)(c1ccccc1)c1ccccc1
→ 0.6 | 1.6 | -1.9 | -1.3 | 3.3 | 43.4 | -5.2 | -1.5 | -0.4
CC(=O)OC1CCC2(C)C(=CCC3C2CCC2(C)C3CC3OC4(CCC(C)CN4)C(C)C32)C1 (stereo unspecified)
→ -1.4 | -1.0 | -2.6 | -1.3 | 12.2 | 11.0 | -6.3 | -10.0 | 0.9
Cn1nccc1C(=O)Nc1ccccc1C(=O)O
→ 11.4 | -1.0 | 2.1 | -9.2 | 15.8 | 9.2 | -5.1 | -33.3 | -0.7
Cc1cc(NC(CC(C)C)C(=O)O)nc(Cc2ccccc2)n1 (stereo unspecified)
→ -6.0 | -5.7 | -4.1 | 10.8 | -4.2 | 5.0 | -10.4 | -22.8 | -2.9
N#CCCN(C(=O)c1ccco1)c1ccccc1
→ -9.6 | 2.6 | -5.4 | -32.8 | 1.0 | 8.9 | -0.6 | -35.7 | -4.1
CCOc1cccc(-c2nnc3sc(-c4cccs4)nn23)c1
→ 1.0 | -6.1 | 10.3 | 2.5 | -5.2 | 12.0 | -5.2 | 4.2 | 2.1
CC1(C)S[C@@H]2[C@H](NC(=O)C(NC(=O)N3CCNC3=O)c3ccccc3)C(=O)N2[C@H]1C(=O)O (stereo partly specified)
→ -0.8 | 0.2 | 114.5* | -13.2 | -0.7 | 7.4 | 4.1 | -3.1 | -3.4
Cc1cc(=O)[nH]c(COc2ccccc2)n1
→ -9.5 | -3.8 | -4.6 | 13.1 | 12.3 | -5.5 | -12.8 | -19.6 | 0.1
COC(=O)c1cc(Br)c(=O)n(Cc2cccnc2)c1
→ -5.1 | 0.7 | -1.6 | -31.8 | -11.0 | 8.4 | -5.9 | -1.5 | 0.7
Nc1ccc(S(=O)(=O)Nc2ccc(Cl)nn2)cc1
→ -1.8 | -2.5 | 6.4 | -0.5 | 12.9 | -55.5 | -7.0 | 17.8 | 2.6
CCOC(=O)[C@H](CCc1ccccc1)N[C@@H](C)C(=O)N1[C@H](C(=O)O)C[C@@H]2CCC[C@@H]21
→ -0.3 | · | -1.6 | -1.0 | 21.7 | 23.1 | 2.6 | · | ·
CCCCC1CC1C(=O)Nc1ccc(OC)c(OC)c1 (stereo unspecified)
→ 2.2 | 0.7 | 4.7 | 6.9 | 15.4 | 42.1 | 15.7 | -14.4 | 1.5
Cc1nc2sc(C)c(C)c2c(=O)o1
→ -2.8 | -2.2 | -1.1 | 0.2 | 4.0 | 36.5 | 13.1 | -20.8 | -0.9
CC1CCc2cc(F)cc3c(O)c(C(=O)NCC4CCCO4)c(=O)n1c23 (stereo unspecified)
→ -7.6 | 2.0 | 6.1 | 1.8 | 4.6 | 20.8 | 0.4 | 23.9 | 4.3
CC1CN(C2CCN(S(=O)(=O)c3ccc4ccccc4c3)CC2)CC(C)O1 (stereo unspecified)
→ -0.2 | 2.3 | 4.7 | 6.8 | 11.3 | 4.3 | 16.7 | -20.5 | -1.9
CCOC(=O)c1ccc(N2CC(O)=C(c3nc4ccccc4c(=O)[nH]3)C2=N)cc1
→ -5.8 | 1.7 | 16.8 | 0.5 | -22.8 | -8.0 | -3.7 | -27.7 | 0.1
C[N+](C)(C)CCCCCCCCCC[N+](C)(C)C
→ -2.1 | 6.7 | -7.6 | -1.7 | -26.5 | 30.0 | -0.4 | -6.8 | 1.6
Cc1cccc(N(Cc2cc3ccccc3[nH]c2=O)C(=O)c2ccco2)c1C
→ 2.5 | · | 2.0 | 0.9 | -0.3 | 12.4 | 13.4 | · | ·
COc1ccc(C(=O)c2ccc(N3CCOCC3)cc2)c(OC)c1
→ -4.3 | -0.6 | -6.5 | -0.6 | -1.6 | 16.9 | -10.5 | -10.0 | -0.7
CCOC(=O)C1=C(N)c2ccccc2CC1C(C)C (stereo unspecified)
→ -1.0 | -1.0 | 1.0 | -11.9 | 9.6 | 58.1 | -7.0 | -26.6 | 0.5
CC(=O)c1c(C(C)=O)c(C)n(NC(=O)c2ccncc2)c1C
→ -15.6 | -1.4 | 0.6 | -5.5 | 3.9 | 15.6 | -17.2 | 0.0 | 1.1
CCCOc1cccc(CN2CCCCC2c2cccnc2)c1 (stereo unspecified)
→ 3.7 | -1.9 | 1.7 | 13.0 | 28.0 | 1.5 | 11.4 | -21.5 | -6.8
COc1cccc([C@H](O)Cn2cc(-c3ccc(CON=C(C)C)cc3)nn2)c1
→ 1.3 | 3.4 | 1.8 | -1.4 | -4.8 | 11.8 | 4.8 | -19.6 | 1.9
Nc1cccc(C(=O)O)c1
→ -9.4 | -2.4 | -6.0 | -4.0 | -5.2 | 15.3 | -14.8 | -6.4 | 2.5

Entries from the list above with an aryl methoxy group:
Each structure is followed by: HSF1 inh | IEC-6 cytotox | SKKanGAS inh | Platelet DG rel | aSyn 5UTR inh | AI-2 QS mod | HSF1 activator | KLF5 inh | HSP90 refold inh
CCC(CC)c1nc2cc(OC)c(OC)cc2c(=O)o1
→ -8.1 | 2.3 | -0.1 | -3.3 | 9.2 | -0.6 | -13.3 | 0.8 | 0.4
CCOC(=O)c1c(C)n(C)c2ccc(OC)c(NC(=O)CCN3CCSCC3)c12
→ 3.2 | 1.0 | 6.0 | 0.9 | 29.5 | 8.6 | 5.7 | -23.0 | 1.2
CCCCC1CC1C(=O)Nc1ccc(OC)c(OC)c1 (stereo unspecified)
→ 2.2 | 0.7 | 4.7 | 6.9 | 15.4 | 42.1 | 15.7 | -14.4 | 1.5
COc1ccc(C(=O)c2ccc(N3CCOCC3)cc2)c(OC)c1
→ -4.3 | -0.6 | -6.5 | -0.6 | -1.6 | 16.9 | -10.5 | -10.0 | -0.7
COc1cccc([C@H](O)Cn2cc(-c3ccc(CON=C(C)C)cc3)nn2)c1
→ 1.3 | 3.4 | 1.8 | -1.4 | -4.8 | 11.8 | 4.8 | -19.6 | 1.9
